ID4 SMM – binders of human ID4 protein, primary screen, biochemical, small molecule microarray, single point | DNA-binding protein inhibitor ID-4 (Homo sapiens), P47928 | 31,000 tested, 1.2% active | Flag-ID4 binding, fluorescence F/B | AID 624137, 2012 | calls only;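 active = spot signal over background at p below 0.07 in all four prints; compounds were printed on slides so no solution concentration is given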;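 note: a binder raises fluorescence above local background on the spot; about 2 pmol printed per array spot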
Target sequence (P47928 whole entry, looked up): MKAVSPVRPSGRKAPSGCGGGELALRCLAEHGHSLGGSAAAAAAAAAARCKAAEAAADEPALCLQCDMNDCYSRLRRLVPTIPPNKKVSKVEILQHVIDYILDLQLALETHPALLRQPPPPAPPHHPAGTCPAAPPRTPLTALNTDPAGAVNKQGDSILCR
STAT3 binder – STAT3 binders, primary screen, biochemical, small molecule microarray, single point, set 2 | Signal transducer and activator of transcription 3 (Homo sapiens), P40763 | calls only | 17,000 tested, 0.2% active | His-STAT3 binding, anti-His fluorescence | AID 624138, 2012;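 active = compounds whose four printed spots each show fluorescence over background unusually high for their array block, chance value under 7%; compounds were printed on slides so no solution concentration is given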;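 note: about 2 pmol printed per array spot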
Target sequence (P40763 whole entry, looked up): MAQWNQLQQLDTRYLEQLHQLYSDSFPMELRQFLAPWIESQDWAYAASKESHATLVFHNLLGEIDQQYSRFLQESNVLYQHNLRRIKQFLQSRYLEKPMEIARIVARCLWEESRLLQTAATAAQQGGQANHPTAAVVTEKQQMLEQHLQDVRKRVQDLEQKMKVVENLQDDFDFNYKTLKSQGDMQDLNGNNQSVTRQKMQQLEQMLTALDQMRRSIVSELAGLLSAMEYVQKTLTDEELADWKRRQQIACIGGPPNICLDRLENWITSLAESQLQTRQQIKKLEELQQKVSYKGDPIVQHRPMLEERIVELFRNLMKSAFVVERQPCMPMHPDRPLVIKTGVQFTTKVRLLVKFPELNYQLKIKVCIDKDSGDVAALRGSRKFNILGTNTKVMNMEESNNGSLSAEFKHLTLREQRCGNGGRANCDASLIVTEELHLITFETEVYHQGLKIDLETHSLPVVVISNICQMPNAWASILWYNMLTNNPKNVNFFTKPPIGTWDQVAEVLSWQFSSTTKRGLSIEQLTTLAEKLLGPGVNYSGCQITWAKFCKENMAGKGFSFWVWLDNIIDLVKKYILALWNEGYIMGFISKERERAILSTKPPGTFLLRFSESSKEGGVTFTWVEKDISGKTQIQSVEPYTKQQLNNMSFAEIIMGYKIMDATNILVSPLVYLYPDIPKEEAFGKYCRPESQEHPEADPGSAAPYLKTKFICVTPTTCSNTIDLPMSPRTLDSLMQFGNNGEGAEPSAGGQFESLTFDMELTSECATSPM
c-Myc SMM – binders of human c-Myc, primary screen, biochemical, small molecule microarray, anti-His fluorescence. calls only. His-c-Myc binding. AID 624141, 2012. 17,000 tested, 1.5% active;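 active = spot fluorescence over background with P-value below 7% in all four replicate spots, showing protein binding; compounds were printed on slides so no solution concentration is given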;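 note: score is binary with 100 for all four spots passing and 0 otherwise; about 2 pmol printed per array spot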
mut p53 SMM – binders of human mutant p53, primary screen, biochemical, small molecule microarray, anti-GST fluorescence | mutant tumor protein p53 (GST-tagged), Homo sapiens | small molecule microarray binding | calls only | 17,000 tested, 0.4% active | AID 624136, 2012;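 active = compounds whose four printed spots each glow above background more than chance allows, each with a p-value under 7%; compounds were printed on slides so no solution concentration is given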;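 note: about 2 pmol printed per array spot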
Calls only; i = inactive; x = not tested or not shown; + = active, no number. A portion of the library. The share of hits here may be higher or lower than overall.

nr	molecule	mut p53 SMM	c-Myc SMM	STAT3 binder	ID4 SMM
1	C[C@@H]1CCCCO[C@@H](CN(C)S(=O)(=O)c2ccc(Cl)cc2)[C@@H](C)CN([C@H](C)CO)C(=O)c2cc(NC(=O)c3ccccc3)ccc2O1	i	i	i	x
2	Cc1noc(C)c1NC(=O)N(C)C[C@H]1Oc2ccc(NC(=O)Nc3cccc4ccccc34)cc2C(=O)N([C@@H](C)CO)C[C@@H]1C	i	i	i	i
3	C[C@@H]1CN([C@H](C)CO)C(=O)c2cc(NS(C)(=O)=O)ccc2O[C@@H]1CN(C)C	i	i	i	i
4	O=C(Cn1cc(C(=O)c2ccccc2F)c2ccccc21)Nc1ccccc1	i	i	i	i
5	CNC[C@H]1Oc2c(NC(=O)Nc3ccc(C(F)(F)F)cc3)cccc2C(=O)N([C@H](C)CO)C[C@H]1C	i	i	i	i
6	C[C@H]1CN([C@@H](C)CO)C(=O)c2cc(NC(=O)Nc3ccccc3)ccc2O[C@H]1CN(C)C(=O)Nc1ccccc1	i	i	i	i
7	C=C1CCC2(C(=O)OC3OC(CO)C(O)C(O)C3OC3OCC(O)C(O)C3O)CCC3(C)C(=CCC4C5(C)CCC(OC6OC(CO)C(O)C(O)C6O)C(C)(CO)C5CCC43C)C2C1 (stereo unspecified)	i	i	i	i
8	CNC[C@@H]1Oc2ccc(NC(=O)CCC(F)(F)F)cc2CC(=O)N([C@H](C)CO)C[C@@H]1C	i	i	i	i
9	COc1cc2ccc(=O)oc2c(O[C@@H]2O[C@H](CO)[C@@H](O)[C@H](O)[C@H]2O)c1OC	i	i	i	i
10	CC(C)(C)c1cc(CN2CCOCC2)c(C(=O)O)o1	i	i	i	i
11	CNC[C@@H]1OCCCC[C@H](C)Oc2ccc(NS(=O)(=O)c3c(C)noc3C)cc2C(=O)N([C@@H](C)CO)C[C@H]1C	i	i	i	i
12	CC(=O)CC(=O)N1C(=O)N(C)[C@@]2(C)Oc3ccccc3[C@@H]1[C@H]2COC(=O)c1ccccc1	i	i	i	i
13	C[C@H]1CCCCO[C@H](CN(C)C)[C@@H](C)CN([C@@H](C)CO)C(=O)c2cc(NS(=O)(=O)c3ccc(Cl)cc3)ccc2O1	i	i	i	i
14	Cc1noc(C)c1S(=O)(=O)N(C)C[C@H]1Oc2ccc(NS(=O)(=O)c3ccc(Cl)cc3)cc2C(=O)N([C@H](C)CO)C[C@H]1C	i	i	i	i
15	C[C@@H]1CN([C@H](C)CO)C(=O)c2cccc(NS(=O)(=O)c3ccc(Cl)cc3)c2O[C@@H]1CN(C)Cc1ccncc1	i	i	i	i
16	Cc1noc(C)c1NC(=O)N(C)C[C@@H]1Oc2ccc(NC(=O)c3ccncc3)cc2CC(=O)N([C@H](C)CO)C[C@@H]1C	i	i	i	i
17	C[C@H]1CN([C@@H](C)CO)C(=O)Cc2cc(NC(=O)CCN3CCOCC3)ccc2O[C@@H]1CN(C)C(=O)Nc1ccccc1	i	i	i	i
18	COCCOC(=O)N1C(=O)[C@@]2(c3cc(C#CCC(C(=O)OC)C(=O)OC)ccc31)[C@H](C(N)=O)[C@H]1C(=O)O[C@H](c3ccccc3)[C@H](c3ccccc3)N1[C@@H]2c1ccccc1OCCO	i	i	i	i
19	C[C@H](CO)N1C[C@H](C)[C@@H](CN(C)Cc2ccc(Cl)c(Cl)c2)Oc2c(NC(=O)C3CCOCC3)cccc2C1=O	i	i	i	i
20	C[C@@H]1CN([C@@H](C)CO)C(=O)c2cccc(NC(=O)NC3CCCCC3)c2O[C@@H]1CN(C)C(=O)Nc1ccc(F)cc1	i	i	i	i

Entries of single compounds, quoted from the list.
CNC[C@@H]1OCCCC[C@H](C)Oc2ccc(NS(=O)(=O)c3c(C)noc3C)cc2C(=O)N([C@@H](C)CO)C[C@H]1C as listed: mut p53 SMM = i; c-Myc SMM = i; STAT3 binder = i; ID4 SMM = i
C[C@@H]1CN([C@H](C)CO)C(=O)c2cccc(NS(=O)(=O)c3ccc(Cl)cc3)c2O[C@@H]1CN(C)Cc1ccncc1 as listed: mut p53 SMM = i; c-Myc SMM = i; STAT3 binder = i; ID4 SMM = i
C[C@H]1CCCCO[C@H](CN(C)C)[C@@H](C)CN([C@@H](C)CO)C(=O)c2cc(NS(=O)(=O)c3ccc(Cl)cc3)ccc2O1 as listed: mut p53 SMM = i; c-Myc SMM = i; STAT3 binder = i; ID4 SMM = i

Remaining list, next part.
nr	molecule	mut p53 SMM	c-Myc SMM	STAT3 binder	ID4 SMM
21	C[C@H](CO)N1C[C@H](C)[C@H](CN(C)C(=O)Nc2ccc(F)cc2)Oc2ccc(NC(=O)c3ccncc3)cc2CC1=O	i	i	i	i
22	C[C@@H]1CN([C@H](C)CO)C(=O)c2cc(NC(=O)CCN3CCOCC3)ccc2O[C@H]1CN(C)C	i	i	i	i
23	CNC[C@H]1Oc2ccc(NS(=O)(=O)c3cccs3)cc2CC(=O)N([C@@H](C)CO)C[C@@H]1C	i	i	i	i
24	C[C@@H]1CN([C@@H](C)CO)C(=O)c2cc(NC(=O)Nc3ccc(F)cc3)ccc2O[C@@H](C)CCCCO[C@@H]1CN(C)C(=O)c1ccccc1	i	i	i	i
25	CC(C)NC(=O)N(C)C[C@@H]1OCCCC[C@H](C)Oc2ccc(NC(=O)Nc3ccc(F)cc3)cc2C(=O)N([C@@H](C)CO)C[C@@H]1C	i	i	i	i
26	C[C@@H]1CN([C@@H](C)CO)C(=O)c2cc(NC(=O)C3CC3)ccc2O[C@H]1CN(C)Cc1ccc(Cl)c(Cl)c1	i	i	i	i
27	COc1cc(C)c(C(=O)Oc2cc(C)c(C(=O)Oc3cc(C)c(C(=O)NC(C)C(=O)O)c(O)c3)c(O[C@@H]3O[C@H](CO)[C@@H](O)[C@H](O)[C@H]3O)c2)c(OC)c1 (stereo partly specified)	i	i	i	i
28	CN(CC(=O)O)S(=O)(=O)c1cc(Cl)ccc1Cl	i	+	i	i
29	C[C@H](CO)N1C[C@H](C)[C@H](CN(C)S(=O)(=O)c2cn(C)cn2)Oc2ccc(NS(C)(=O)=O)cc2CC1=O	i	i	i	i
30	O=C(OCc1ccco1)c1ccc(S(=O)(=O)N2CCCCC2)cc1	i	i	i	i
31	CNC[C@H]1OCCCC[C@H](C)Oc2ccc(NC(=O)C3CCCCC3)cc2C(=O)N([C@@H](C)CO)C[C@@H]1C	i	i	i	i
32	C[C@H](CO)N1C[C@H](C)[C@@H](CN(C)Cc2ccc3c(c2)OCO3)Oc2c(NC(=O)NC3CCCCC3)cccc2C1=O	i	i	i	i
33	Cc1cc(Br)cc(C)c1NC(=O)CSc1nnc(-c2cc3cc(Cl)ccc3o2)n1C	i	i	i	i
34	COc1ccc(C#Cc2cnc3c(c2)C(=O)N([C@H](C)CO)C[C@H](C)[C@H](CN(C)Cc2ccccc2)O3)cc1OC	i	i	i	i
35	C[C@@H]1CN([C@H](C)CO)C(=O)c2cc(NC(=O)CCCN(C)C)ccc2O[C@@H](C)CCCCO[C@@H]1CN(C)C(=O)Nc1ccccc1	i	i	i	i
36	Cc1cc(C)nc(SCC(=O)N2c3ccccc3Sc3ccccc32)n1	i	i	i	i
37	O=C(C1=C[C@H](c2ccc(C(F)(F)F)cc2)C[C@H](OCCCCO)O1)N1CCN(Cc2ccc3c(c2)OCO3)CC1	i	i	i	i
38	CC(C)NC(=O)Nc1ccc2c(c1)C(=O)N([C@@H](C)CO)C[C@@H](C)[C@@H](CN(C)S(=O)(=O)c1cccs1)OCCCC[C@@H](C)O2	i	i	i	i
39	C[C@@H]1CN([C@H](C)CO)C(=O)Cc2cc(NC(=O)c3ccncc3)ccc2O[C@H]1CN(C)C	i	i	i	x
40	Cc1noc(C)c1S(=O)(=O)Nc1ccc2c(c1)CC(=O)N([C@@H](C)CO)C[C@@H](C)[C@@H](CN(C)C(=O)NC(C)C)O2	i	i	i	i
41	CNC[C@@H]1Oc2ccc(NS(=O)(=O)c3cccs3)cc2CC(=O)N([C@H](C)CO)C[C@@H]1C	i	i	i	i
42	CC(=O)OCOC(=O)CN(CC(=O)OCOC(C)=O)c1ccccc1OCCOc1ccccc1N(CC(=O)OCOC(C)=O)CC(=O)OCOC(C)=O	i	i	i	x
43	Cc1cc(C)nc(NS(=O)(=O)c2ccc(NC(=O)C3COc4ccccc4O3)cc2)n1 (stereo unspecified)	i	i	i	i
44	C[C@H](CO)N1C[C@H](C)[C@H](CN(C)S(=O)(=O)c2ccccc2)Oc2ncc(C#Cc3ccccc3)cc2C1=O	i	i	i	i
45	C[C@@H]1CN([C@H](C)CO)C(=O)c2cccc(NS(=O)(=O)c3ccccc3)c2O[C@@H]1CN(C)C(=O)Nc1ccc(C(F)(F)F)cc1	i	i	i	i
46	C[C@H]1CCCCO[C@@H](CN(C)C)[C@@H](C)CN([C@@H](C)CO)C(=O)c2cc(NC(=O)c3ccncc3)ccc2O1	i	i	i	i
47	C[C@@H]1CCCCO[C@@H](CN(C)Cc2ccccc2)[C@H](C)CN([C@@H](C)CO)C(=O)c2cc(NS(=O)(=O)c3cccs3)ccc2O1	i	i	i	i
48	COc1ccc(S(=O)(=O)Nc2cccc3c2O[C@@H](CN(C)CC2CC2)[C@@H](C)CN([C@H](C)CO)C3=O)cc1	i	i	i	i
49	O=C(OCC1=CC(O)C2C=CO[C@@H](O[C@@H]3O[C@H](CO)[C@@H](O)[C@H](O)[C@H]3O)C12)c1ccccc1 (stereo partly specified)	i	i	i	i
50	N#Cc1c(NC(=O)Cn2c(=O)oc3ccccc32)oc(-c2ccccc2)c1-c1ccccc1	i	i	i	+
51	C[C@@H]1CN([C@@H](C)CO)C(=O)c2cc(NC(=O)CCC(F)(F)F)ccc2O[C@H]1CN(C)C(=O)Nc1cccc2ccccc12	i	i	i	i
52	Cc1ccc(S(=O)(=O)Nc2ccc3c(c2)CC(=O)N([C@@H](C)CO)C[C@@H](C)[C@@H](CN(C)Cc2ccc4c(c2)OCO4)O3)cc1	i	i	i	x
53	C[C@@H]1CN([C@H](C)CO)C(=O)c2cc(NS(=O)(=O)c3cn(C)cn3)ccc2O[C@@H]1CN(C)C(=O)Nc1ccc(F)cc1	i	i	i	i
54	CNC[C@@H]1Oc2c(NC(=O)Nc3ccc(C(F)(F)F)cc3)cccc2C(=O)N([C@@H](C)CO)C[C@H]1C	i	i	i	i
55	C[C@H]1CN([C@@H](C)CO)C(=O)c2cccc(NC(=O)NC3CCCCC3)c2O[C@@H]1CN(C)Cc1ccncc1	i	i	i	i
56	CC(=O)Nc1ccc(C(=O)CSc2nc3ccccc3n2C)cc1	i	i	i	i
57	COCCNC(=O)c1ccccc1-c1nc(-c2ccc(OC)c(OC)c2)no1	i	i	i	i
58	C[C@@H]1CN([C@H](C)CO)C(=O)Cc2cc(NC(=O)Cc3cn(C)c4ccccc34)ccc2O[C@H]1CN(C)CC1CCCCC1	i	i	i	x
59	COC(=O)c1c(-c2ccc(F)cc2)csc1NC(=O)CSc1ncnc2sc3c(c12)CCC3	i	i	i	i
60	COc1ccc(NC(=O)Nc2ccc3c(c2)CC(=O)N([C@H](C)CO)C[C@H](C)[C@@H](CN(C)S(=O)(=O)c2ccc(C)cc2)O3)cc1	i	i	i	i
61	Cc1ccccc1C(=O)Nc1ccc(OCC(=O)O)cc1	i	i	i	+
62	O=C(CSc1nccc(=O)[nH]1)Nc1cccc(F)c1	i	i	i	i
63	CC(C)NC(=O)N(C)C[C@@H]1Oc2ccc(NC(=O)CCCN(C)C)cc2CC(=O)N([C@@H](C)CO)C[C@H]1C	i	i	i	i
64	COc1ccc(-c2cc(C(=O)N3CCCC3C(=O)O)c(C)o2)cc1OC (stereo unspecified)	i	i	i	i
65	COC(=O)C(CC#Cc1ccc2c(c1)[C@]1(C(=O)N2)[C@H](c2ccc(OCCO)cc2)N2[C@H](c3ccccc3)[C@H](c3ccccc3)OC(=O)[C@H]2[C@@H]1C(N)=O)C(=O)OC	i	i	i	i
66	NC(=O)[C@@H]1[C@H]2C(=O)O[C@H](c3ccccc3)[C@H](c3ccccc3)N2[C@H](c2ccccc2OCCO)[C@@]12C(=O)Nc1ccc(C#CC3(O)CCCCCC3)cc12	i	i	i	i
67	COc1ccc([N+](=O)[O-])cc1NC(=O)C(C)N(c1ccccc1)S(C)(=O)=O (stereo unspecified)	i	i	i	i
68	C[C@@H]1CCCCO[C@@H](CN(C)C)[C@H](C)CN([C@@H](C)CO)C(=O)c2cc(NC(=O)c3ccncc3)ccc2O1	i	i	i	i
69	C#CCNC(=O)C1=C[C@H](c2ccc(C(F)(F)F)cc2)C[C@H](OCCCCO)O1	i	i	i	x
70	COc1ccc(S(=O)(=O)Nc2cccc3c2O[C@H](CN(C)Cc2ccc(C(=O)O)cc2)[C@H](C)CN([C@H](C)CO)C3=O)cc1	i	i	i	i
71	C[C@H]1CCCCO[C@H](CN(C)C(=O)CCC(F)(F)F)[C@@H](C)CN([C@@H](C)CO)C(=O)c2cc(NS(=O)(=O)c3ccccc3)ccc2O1	i	i	i	i
